High-throughput results as filed in PubChem.
ClpP mod: qHTS Assay for Activators of ClpP; purified B. subtilis ClpP, FRET peptide cleavage, 20 min; Potency, µM (titrated, usually from 57.5 µM), for inactives: top-dose activity change, negative = active; 340,000 compounds, 1.9% hits; AID 651965, 2013; active = well fitted falling curve with a large enough effect; inconclusive = small, poorly fitted or top-dose-only effect; inactive = no such curve, though single readings can be large or run the other way; note: potency is the fitted concentration of half-maximal effect; the source files actives as falling curves though it sought activators and does not explain the sign; nearly all actives have a fitted effect of over 65% in size; many hits overshoot -100%
Target sequence (P80244 whole entry, looked up): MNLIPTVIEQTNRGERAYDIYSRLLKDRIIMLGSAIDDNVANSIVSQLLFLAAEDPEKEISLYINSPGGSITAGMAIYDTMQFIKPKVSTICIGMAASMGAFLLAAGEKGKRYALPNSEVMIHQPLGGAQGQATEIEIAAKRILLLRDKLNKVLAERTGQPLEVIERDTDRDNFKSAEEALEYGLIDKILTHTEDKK
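Purified B. subtilis ClpP, 10 microg/mL final in Tris/HCl pH8 with KCl, BSA, glycerol and Tween-20, cleaved an Abz/nitrotyrosine-quenched decapeptide. Fluorescence (ex 320, em 430) was read at 0 and 20 min at room temperature. Delta was normalized to 5.8 microM ADEP and DMSO/no-enzyme controls.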
Menin-MLL FL inh: menin-MLL binding inhibition, fluorescein peptide. FP activity change, % at 61.4 µM. AID 1766. 290,000 tested, under 10 active. Fluorescence polarization, fluorescein-MLL peptide displacement from menin; inconclusive = falling polarisation curve, or a change in total fluorescence; inactive = total fluorescence flat and polarisation flat or rising; no compound was filed as active; the % refers to the polarisation; negative = inhibition;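 note: % of control where 0% means no effect; inhibitors lower the polarisation; unlabelled MLL peptide was the positive control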
gsp antag: gsp mutant antagonism; gsp-mutant cells, cAMP HTRF, 30 min; control for the full effect not named in the record; Potency, µM (doses to about 76.9 µM), inactives show at the highest dose activity change, negative = inhibition, hits mostly inhibitors; 340,000 compounds, 0.4% hits; AID 624288; active = falling curve of any shape with a large fitted effect; inconclusive = falling curve, mostly with a smaller effect; inactive = flat or rising curve; cell line not stated here;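 note: intracellular cAMP measured with PDE inhibitor Ro 20-1724 present during compound exposure; potency is the fitted concentration of half-maximal effect; % is set by controls: 0 for no effect and ±100 for the full control effect; nearly all actives have a fitted effect of over 65% in size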
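Measurement of cellular cAMP by homogeneous time-resolved fluorescence following a 30 min compound exposure at 37C. The PDE inhibitor […] was present throughout; the assay buffer was DPBS with 0.05% BSA and 0.005% Tween 20.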
Sfp inh: blocks B. subtilis Sfp PPTase activity; Q9F4F7; Biochemical Sfp PPTase activity, qHTS; Potency, µM, inactives show max response, negative = inhibition, most hits filed as inhibitors; 310,000 compounds, 3.5% hits; active = well fitted inhibition curve with a large enough effect; inconclusive = small, poorly fitted or top-dose-only effect, or another doubt; inactive = no such curve, though single readings can be large or run the other way;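 note: the enzyme is Sfp with the accession as filed and its product quenches rhodamine fluorescence; potency is the fitted concentration of half-maximal effect; 0% = enzyme reaction without inhibitor and -100% = no enzyme wells; top concentration of the series not given in the record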
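With Hepes-Na pH 7.6 buffer containing 10 mM MgCl2, Sfp (15 nM) modified BHQ-2-YbbR (12.5 uM) using rhodamine-CoA (5 uM). Two reads 30 minutes apart at 525/598 nm yielded each well's rate.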
TRPV1 PAM: human TRPV1 potentiation. Q8NER1. TRPV1-expressing cells, Fluo-8 calcium influx, capsaicin EC20 potentiation; host cell line not named in the record; control for the full effect not named in the record. potentiation, % at 8.33 µM. 320,000 compounds, 0.02% hits. AID 540277; active means potentiation above 80%; inconclusive means 30% to 80%; inactive means below 30%; note: 0% is about no effect
Target sequence (Q8NER1 whole entry, looked up): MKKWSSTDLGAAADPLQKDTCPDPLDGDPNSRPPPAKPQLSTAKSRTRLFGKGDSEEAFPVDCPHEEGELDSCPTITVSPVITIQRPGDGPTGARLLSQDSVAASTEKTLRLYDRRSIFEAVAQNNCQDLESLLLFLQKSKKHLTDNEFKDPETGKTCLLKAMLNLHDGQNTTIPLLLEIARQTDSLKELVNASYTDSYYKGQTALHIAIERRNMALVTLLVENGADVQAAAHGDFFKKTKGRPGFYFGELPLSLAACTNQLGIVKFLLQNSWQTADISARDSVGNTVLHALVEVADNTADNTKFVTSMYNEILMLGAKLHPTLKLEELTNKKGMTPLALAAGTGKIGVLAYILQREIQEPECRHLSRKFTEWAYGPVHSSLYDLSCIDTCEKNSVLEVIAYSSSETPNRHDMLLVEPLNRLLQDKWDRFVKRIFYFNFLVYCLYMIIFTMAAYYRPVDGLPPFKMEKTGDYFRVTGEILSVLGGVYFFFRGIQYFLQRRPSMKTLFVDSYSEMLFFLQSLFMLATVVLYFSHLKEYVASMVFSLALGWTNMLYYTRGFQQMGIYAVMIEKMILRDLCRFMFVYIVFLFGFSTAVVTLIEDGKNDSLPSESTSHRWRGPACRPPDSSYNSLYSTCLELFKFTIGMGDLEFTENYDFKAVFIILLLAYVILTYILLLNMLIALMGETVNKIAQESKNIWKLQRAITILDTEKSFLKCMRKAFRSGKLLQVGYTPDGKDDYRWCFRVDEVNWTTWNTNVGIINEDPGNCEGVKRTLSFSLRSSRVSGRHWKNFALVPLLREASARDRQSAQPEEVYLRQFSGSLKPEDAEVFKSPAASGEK
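TRPV1-expressing cells were cultured overnight at 35.5C and loaded with Fluo-8 calcium dye for 40 to 90 min at room temperature. After a 10 s baseline, compound was added and calcium influx was read kinetically for 3 min (ex 480/em 520 nm).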
CtBP-E1A blk: CtBP/E1A binding inhibition; AlphaScreen GST-E1A/His-CtBP binding, 1536-well; stronger effect = lower value; control for the full effect not named in the record; activity change, % (no concentration beside the values); AID 651724; 340,000 compounds, 0.49% hits; in the data active means activity change below about -65%; inconclusive means about -30% to -65%; inactive means above about -30%; note: % is set by controls: 0 for no effect and ±100 for the full control effect
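Homogeneous bead-based format: GST-tagged E1A captured on glutathione donor beads, His-tagged CtBP on nickel acceptor beads; compounds precede bead addition by 2 h at 37 °C.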
gsp ag: agonists of gsp mutant (McCune-Albright syndrome) | gsp mutant cells, cAMP HTRF, 30 min; control for the full effect not named in the record | Potency, µM (series often up to 76.9 µM), for the others: at the top dose activation (cAMP increase), actives largely listed as activators | 340,000 compounds, 0.13% hits; active = well fitted activation curve with a large enough effect; inconclusive = small, poorly fitted or top-dose-only effect, or another doubt; inactive = no such curve, though single readings can be large or run the other way; cell line not stated here;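 note: phosphodiesterase inhibitor Ro 20-1724 added with compounds to block cAMP breakdown; potency is the fitted concentration of half-maximal effect; nearly all actives have a fitted effect of over 60% in size; about a fifth of the inactives were tested at one dose only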
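Cells in DMEM/10% FBS with G418 were pretreated with compounds in DMSO plus […] (300 uM stock) for 30 min at 37C. cAMP was measured by HTRF (cAMP-d2 plus anti-cAMP antibody-K) after 30 min at room temperature.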
Numbers without * were called inactive; ? = inconclusive; . = not tested or not shown; [ ] = another dose, or the depositor's remark.

SMILES | ClpP mod | Menin-MLL FL inh | gsp antag | Sfp inh | TRPV1 PAM | CtBP-E1A blk | gsp ag
C(=C\N1CCCCCC1)/c1nnnn1-c1ccc(-c2ccccc2)cc1 | . | 13 | -6% | ? | 6 | -5 | -8%[15.4 µM]
OCCN1CCN(c2ncnc3c2sc2nc(N4CCOCC4)c4c(c23)CCC4)CC1 | ? | 4.8 | 8% | 4% | -8 | 5 | -27%
COc1ccc(S(=O)(=O)N(CC(=O)NCc2ccco2)C2CCCCC2)cc1OC | 1.2% | -0.5 | -1% | 50µM* | -4 | 3 | -3%
CC(C)c1ccc(/C=N/NC(=O)c2cc(-c3cccc([N+](=O)[O-])c3)n[nH]2)cc1 | 0.8% | 3.1 | -12% | 9% | . | -2 | 2%[15.4 µM]
O=S(=O)(/N=C(/Nc1ccc(F)cc1F)c1ccc(Cl)cc1)c1ccccc1 | 1.0% | 4.1 | 14% | 34%[activator] | 6 | 5 | -13%
CCOC(=O)c1c(NC(=O)CCC(=O)NCc2ccco2)sc2c1CCCC2 | 220% | -1.2 | -23% | -9% | -11 | -1 | -2%
COc1ccc(-n2c(SCC(=O)Nc3ccccc3)nc(O)cc2=O)cc1 | -0.7% | 2.5 | -12% | -2% | -2 | . | 25%
CC(C)Cc1ccc(C(C)C(N)=Nc2ccc(O)cc2)cc1 (configuration not stated) | . | . | 20% | . | . | 0 | 17%
Cc1ccc(CNC(=O)CCCc2nc3ccccc3s2)cc1 | 0.1% | 7.0 | 3% | -44% | -6 | 2 | -11%[15.4 µM]
CN(C)c1ccc(S(=O)(=O)NCC(=O)NCC2CCCCC2)cc1[N+](=O)[O-] | . | -0.3 | 1% | -13% | 2 | 2 | 26%[15.4 µM]
Cc1ccc(S(=O)(=O)N2CCN(C(=O)CSc3nnnn3C)CC2)c(C)c1 | 0.7% | 2.3 | -3% | 3% | 1 | . | -16%
Cn1c2ccccc2c(=O)c2ccc(NCc3ccc4c(c3)OCO4)cc21 | 4.9% | . | ? | . | . | -19 | .
Cc1cc(-c2nnc(SCC(=O)Nc3ccc(F)c(F)c3)n2N)n[nH]1 | 2.1% | . | -4% | 11% | -4 | 3 | 19%
COc1ccccc1CC(NC(C)=O)C(=O)NC1CCN(C(=O)c2cccc(Cl)c2)CC1 (configuration not stated) | . | -10 | -19% | 1% | 5 | -17 | 17%[15.4 µM]
COc1cc2c(C(=O)N3CCCc4ccccc43)cn(C)c(=O)c2cc1OC | -7.4% | 4.2 | 14% | -5% | 2 | -1 | 15%
COc1cccc(NC(=S)N(CCCN2CCN(C)CC2)Cc2ccco2)c1 | . | -1.7 | -3% | 7% | 4 | -1 | -24%[15.4 µM]
Cc1ccccc1NC(=O)N1C2CCC1CC(O)(c1cccnc1)C2 (configuration not stated) | 0.7% | 3.6 | 23% | 11% | 24 | 7 | 23%
COc1ccc2ccccc2c1/C=N/NC(=O)c1cccc(Br)c1 | -5.7% | 0.9 | -17% | 12% | 11 | -5 | -14%
CCCCCOC(=O)C1=C(C)Nc2ncnn2C1c1cccs1 (configuration not stated) | -2.0% | 3.5 | ? | 19% | -4 | -1 | -1%
Cc1nn(-c2ccccc2)c(CC(C)(C)C(=O)O)c1C(=O)O | -1.7% | -0.6 | 1% | 13% | 5 | 11 | 2%
COc1cc(C2N(c3ccc(Cl)c(Cl)c3)C(=O)C3CCCN32)cc(OC)c1OC (configuration not stated) | -2.0% | -0.7 | -15% | 16% | -14 | 4 | 5%
Cc1c(C)c(C)c(/C=[N+](/C)[O-])c(C)c1C | -4.3% | 2.1 | 16% | ? | 0 | 7 | -1%
CN1CCc2c(sc(NC(=O)C3CCN(S(=O)(=O)c4cccs4)CC3)c2C(N)=O)C1 | 1.9% | . | -14% | . | 1 | -4 | 4%
CNn1cnc2ccsc2c1=O | 0.3% | -2.6 | 11% | 9% | 1 | 6 | -9%[15.4 µM]
CCOC(=O)C(NC(=O)c1ccccc1)C(C)(C)SCc1ccccc1 (configuration not stated) | 1.4% | . | -26% | . | . | 14 | 28%
Cc1ccc(C(=O)CCNc2ccccc2)o1 | 0.1% | 3.9 | -9% | 0% | -8 | -3 | -23%
O=C(CSc1nnc(CNC(=O)c2ccco2)o1)Nc1nc2ccccc2s1 | 2.3% | -1.6 | 85%[activator] | ? | ? | . | 10%
Cc1ccc(Nc2ncnc3c2cnn3C)c(C)c1 | -4.1% | -2.1 | 7% | 4% | 4 | 3 | 15%[15.4 µM]
Cc1cc2cc(CNC(=O)c3cc4ccccc4o3)ccc2n1C | . | ? | . | 10% | 6 | . | .
OCCC1CN(Cc2nc3ccccc3[nH]2)CCN1C1CCCC1 (configuration not stated) | . | -3.4 | 10% | 4% | 10 | 6 | 16%
N#Cc1cn(CC(=O)NCC2CCCO2)c2ccccc12 (configuration not stated) | 0.0% | 5.0 | 6% | 15% | 1 | 4 | -32%
CN(C(=O)C1CCOC1)c1nnc(-c2ccncc2)s1 (configuration not stated) | 100% | -5.5 | 8% | 6% | -2 | -3 | -39%
O=C(NCCN1CCOCC1)c1ccc(Cl)c([N+](=O)[O-])c1 | . | -1.0 | -9% | 3% | -5 | -1 | -57%[inhibitor]
CC(C)C(=O)NC(=S)Nc1c(Cl)ccc2nsnc12 | . | 4.3 | -1% | -13% | 1 | 0 | 0%[15.4 µM]
COCCN(C(=O)CSc1nc2ccc(C)cc2[nH]1)c1c(N)n(Cc2ccccc2)c(=O)[nH]c1=O | . | -0.7 | -3% | -9% | -3 | 2 | ?
Cc1ccc(S(=O)(=O)CCC(=O)N2CCN(c3ccc(Cl)cc3)CC2)cc1 | 0.1% | 6.3 | ? | -1% | -6 | -2 | -1%
O=C(N/N=C/c1sc(=O)n(-c2ccccc2)c1Cl)c1ccccc1 | -4.1% | ? | -15% | -1% | 18 | -9 | ?
O=C(O)Cc1sc(Nc2cccc3ccccc23)nc1-c1ccc(Cl)cc1 | 0.4% | 0.2 | -20% | -26% | 23 | -10 | -2%[15.4 µM]
CCOc1cc(-c2nc3n(c(=O)c2C#N)CCS3)ccc1O | 1.6% | ? | ? | 6% | 3 | -7 | 28%
COc1ccc(N2CCN(C(=O)c3cn(CC4CCCCC4)nn3)CC2)cc1 | . | . | -2% | 5% | 5 | -21 | 3%

Shown as a hit in Sfp inh, of those listed so far:
Compound | Menin-MLL FL inh | gsp antag | Sfp inh | CtBP-E1A blk | gsp ag
COc1ccc(S(=O)(=O)N(CC(=O)NCc2ccco2)C2CCCCC2)cc1OC | -0.5 | -1% | 50µM* | 3 | -3%

Additional compounds
SMILES | ClpP mod | Menin-MLL FL inh | gsp antag | Sfp inh | TRPV1 PAM | CtBP-E1A blk | gsp ag
CC(C(=O)N1CCc2ccccc21)N1CCc2ccccc2C1 (configuration not stated) | -2.1% | -2.5 | 4% | -2% | -4 | -4 | ?
COc1ccc(/C=N/NC(=O)CCn2c3ccccc3c3ccccc32)cc1OC | 90% | -1.8 | 2% | 6% | 1 | -7 | -10%
O=C(NCc1ccco1)/C(=C/c1ccco1)NC(=O)c1ccco1 | . | -1.0 | 5% | -29% | -6 | 4 | 18%
O=C(CSC1=NC(=O)C(c2ccccc2)C(=O)N1)Nc1ccccc1[N+](=O)[O-] (configuration not stated) | . | 2.8 | 6% | -2% | 1 | 0 | ?
COc1ccc(CN2CCC(C(=O)Nc3ccc(Oc4cccnc4)cc3)CC2)cc1 | -1.7% | . | 2% | 9% | 1 | -1 | 10%[15.4 µM]
O=C(CSc1nnc(NC(=O)c2ccccc2F)s1)NCC1CCCO1 (configuration not stated) | -5.7% | . | -11% | 50µM* | 10 | 4 | ?
O=C(NN1CCOCC1)c1cc(Cl)ccc1Cl | 0.8% | . | 12% | 24% | 29 | 3 | 4%
Cc1ccccc1C(=O)NC1CCN(CC(=O)Nc2ccccc2Cl)CC1 | 1.4% | -4.7 | 1% | -3% | 10 | 8 | -5%
Clc1ccc2nc(CSCc3ccccc3)cn2c1 | . | 0.3 | 10% | 5% | -26 | -1 | 1%
Cc1ccc(S(=O)(=O)N2CCOCC2)cc1NC(=O)CNc1ccccc1N1CCCC1=O | 0.6% | . | -1% | . | -10 | 1 | -1%
Cc1ccccc1NC(=O)/C(C#N)=C/c1ccccc1C(F)(F)F | 2.3% | 1.5 | -1% | 1% | -1 | 5 | -27%
O=C(c1nc2ccccn2c1CNCCn1ccc2ccccc21)N1CCOCC1 | -7.6% | -17 | -10% | 22% | -4 | -1 | -5%

Only ClpP mod, Menin-MLL FL inh and gsp ag, for some of the entries so far:
SMILES | ClpP mod | Menin-MLL FL inh | gsp ag
CCOC(=O)c1c(NC(=O)CCC(=O)NCc2ccco2)sc2c1CCCC2 | 220% | -1.2 | -2%
CC(C(=O)N1CCc2ccccc21)N1CCc2ccccc2C1 (configuration not stated) | -2.1% | -2.5 | ?

3 of the entries above in order of their number in Menin-MLL FL inh, low to high:
molecule | Menin-MLL FL inh | gsp antag | Sfp inh | CtBP-E1A blk | gsp ag
O=C(c1nc2ccccn2c1CNCCn1ccc2ccccc21)N1CCOCC1 | -17 | -10% | 22% | -1 | -5%
CC(C(=O)N1CCc2ccccc21)N1CCc2ccccc2C1 (configuration not stated) | -2.5 | 4% | -2% | -4 | ?
Clc1ccc2nc(CSCc3ccccc3)cn2c1 | 0.3 | 10% | 5% | -1 | 1%

Given with each value named: part of the list above
O=C(NN1CCOCC1)c1cc(Cl)ccc1Cl
- ClpP mod: 0.8%
- Menin-MLL FL inh: .
- gsp antag: 12%
- Sfp inh: 24%
- TRPV1 PAM: 29
- CtBP-E1A blk: 3
- gsp ag: 4%

Cc1ccccc1C(=O)NC1CCN(CC(=O)Nc2ccccc2Cl)CC1
- ClpP mod: 1.4%
- Menin-MLL FL inh: -4.7
- gsp antag: 1%
- Sfp inh: -3%
- TRPV1 PAM: 10
- CtBP-E1A blk: 8
- gsp ag: -5%
